Source: PubChem BioAssay (National Center for Advancing Translational Sciences (NCATS))
gsp antag – antagonists of gsp mutant (McCune-Albright syndrome); gsp-mutant cells, cAMP HTRF, 30 min; control for the full effect not named in the record; Potency, µM (doses to about 76.9 µM), for the others: at the highest dose activity change, negative = inhibition, actives largely listed as inhibitors; hit rate 0.4% among 340,000; AID 624288; active = falling curve of any shape with a large fitted effect; inconclusive = falling curve, mostly with a smaller effect; inactive = flat or rising curve; cell line not stated here;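 further: intracellular cAMP measured with PDE inhibitor Ro 20-1724 present during compound exposure; potency means the concentration at half of the fitted maximal effect; on the % scale 0 is the no-effect control and ±100 the full control effect; nearly all actives have a fitted effect of over 65% in size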
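G418-selected cells were plated in DMEM/10% FBS for 16-24 h at 37C, then treated with compounds plus the PDE inhibitor […] (300 uM solution added) for 30 min at 37C. Intracellular cAMP was measured by HTRF after 30 min lysis at room temperature.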
Menin MLL FP FL – displaces fluorescein MLL peptide from human menin; Fluorescence polarization, fluorescein-MLL peptide displacement from menin; FP activity change, % at 61.4 µM; 290,000 tested, under 10 active; AID 1766; inconclusive = falling polarisation curve, or a change in total fluorescence; inactive = total fluorescence flat and polarisation flat or rising; no compound was filed as active; the % refers to the polarisation; negative = inhibition;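 further: % of control where 0% means no effect; inhibitors lower the polarisation; unlabelled MLL peptide was the positive control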
gsp agonist – agonists of gsp mutant (McCune-Albright syndrome); gsp mutant cells, cAMP HTRF, 30 min; control for the full effect not named in the record; Potency, µM (series often up to 76.9 µM), inactives show top-dose activation (cAMP increase), usual class: activators; hit rate 0.13% among 340,000; AID 624287; active = well fitted activation curve with a large enough effect; inconclusive = small, poorly fitted or top-dose-only effect, or another doubt; inactive = no such curve, though single readings can be large or run the other way; cell line not stated here;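 further: phosphodiesterase inhibitor Ro 20-1724 added with compounds to block cAMP breakdown; potency means the concentration at half of the fitted maximal effect; nearly all actives have a fitted effect of over 60% in size; about a fifth of the inactives were tested at one dose only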
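Cells stably selected in G418 were plated at 2000/well, grown 16-24 hr, then given compounds in DMSO with the PDE inhibitor […] (300 uM solution added) for 30 min at 37C; cAMP was read by HTRF.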
CtBP-E1A blk – CtBP/E1A binding inhibition | activity change, % (no concentration beside the values) | AID 651724 | AlphaScreen GST-E1A/His-CtBP binding, 1536-well; stronger effect = lower value; control for the full effect not named in the record | hit rate 0.49% among 340,000; in the data active means activity change below about -65%; inconclusive means about -30% to -65%; inactive means above about -30%; further: on the % scale 0 is the no-effect control and ±100 the full control effect; compound concentration not given in the record
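Steps: dispense buffer (Tris pH 8.0, NaCl 300 mM, TCEP 1 mM, BSA, Tween 20); add 5X protein mix (GST-E1A, His-CtBP, 125 nM each); pin 23 nL compound; 2 h at 37 °C, dark; add 5X beads (50 ug/mL); 1 h; read.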
ClpP mod – qHTS Assay for Activators of ClpP | ATP-dependent Clp protease proteolytic subunit (Bacillus subtilis (strain 168)), P80244 | purified B. subtilis ClpP, FRET peptide cleavage, 20 min | Potency, µM (doses to about 57.5 µM), for the others: top-dose activity change, negative = active | hit rate 1.9% among 340,000 | AID 651965, 2013; active = well fitted falling curve with a large enough effect; inconclusive = small, poorly fitted or top-dose-only effect; inactive = no such curve, though single readings can be large or run the other way; further: potency means the concentration at half of the fitted maximal effect; the source files actives as falling curves though it sought activators and does not explain the sign; nearly all actives have a fitted effect of over 65% in size; many hits overshoot -100%
Target sequence (P80244 whole entry, looked up): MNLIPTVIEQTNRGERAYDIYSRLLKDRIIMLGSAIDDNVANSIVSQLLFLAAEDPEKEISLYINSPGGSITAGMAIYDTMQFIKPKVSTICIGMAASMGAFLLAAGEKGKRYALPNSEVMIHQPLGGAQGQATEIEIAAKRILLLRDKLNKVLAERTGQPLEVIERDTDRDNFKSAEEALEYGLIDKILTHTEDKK
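Purified B. subtilis ClpP, 10 microg/mL final in Tris/HCl pH8 with KCl, BSA, glycerol and Tween-20, cleaved an Abz/nitrotyrosine-quenched decapeptide. Fluorescence (ex 320, em 430) was read at 0 and 20 min at room temperature. Delta was normalized to 5.8 microM ADEP and DMSO/no-enzyme controls.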
Sfp PPTase inh – inhibitors of Bacillus subtilis Sfp phosphopantetheinyl transferase; Q9F4F7; Biochemical Sfp PPTase activity, qHTS; Potency, µM, inactives show max response, negative = inhibition, hits mostly inhibitors; hit rate 3.5% among 310,000; AID 1490; active means well fitted inhibition curve with a large enough effect; inconclusive means small, poorly fitted or top-dose-only effect, or another doubt; inactive means no such curve, though single readings can be large or run the other way;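 further: the enzyme is Sfp with the accession as filed and its product quenches rhodamine fluorescence; potency means the concentration at half of the fitted maximal effect; 0% = enzyme reaction without inhibitor and -100% = no enzyme wells; top concentration of the series not given in the record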
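Reaction rates are the 30-min fluorescence difference (ex 525, em 598 nm) in wells containing 15 nM Sfp, 5 uM rhodamine-CoA and 12.5 uM BHQ-2-YbbR at pH 7.6 with 10 mM MgCl2.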
TRPV1 potentiator – enhances activation of the human vanilloid receptor TRPV1; hit rate 0.02% among 320,000; potentiation, % at 8.33 µM; Q8NER1; TRPV1-expressing cells, Fluo-8 calcium influx, capsaicin EC20 potentiation; host cell line not named in the record; control for the full effect not named in the record; active means potentiation above 80%; inconclusive means 30% to 80%; inactive means below 30%; further: 0% is about no effect
Target sequence (Q8NER1 whole entry, looked up): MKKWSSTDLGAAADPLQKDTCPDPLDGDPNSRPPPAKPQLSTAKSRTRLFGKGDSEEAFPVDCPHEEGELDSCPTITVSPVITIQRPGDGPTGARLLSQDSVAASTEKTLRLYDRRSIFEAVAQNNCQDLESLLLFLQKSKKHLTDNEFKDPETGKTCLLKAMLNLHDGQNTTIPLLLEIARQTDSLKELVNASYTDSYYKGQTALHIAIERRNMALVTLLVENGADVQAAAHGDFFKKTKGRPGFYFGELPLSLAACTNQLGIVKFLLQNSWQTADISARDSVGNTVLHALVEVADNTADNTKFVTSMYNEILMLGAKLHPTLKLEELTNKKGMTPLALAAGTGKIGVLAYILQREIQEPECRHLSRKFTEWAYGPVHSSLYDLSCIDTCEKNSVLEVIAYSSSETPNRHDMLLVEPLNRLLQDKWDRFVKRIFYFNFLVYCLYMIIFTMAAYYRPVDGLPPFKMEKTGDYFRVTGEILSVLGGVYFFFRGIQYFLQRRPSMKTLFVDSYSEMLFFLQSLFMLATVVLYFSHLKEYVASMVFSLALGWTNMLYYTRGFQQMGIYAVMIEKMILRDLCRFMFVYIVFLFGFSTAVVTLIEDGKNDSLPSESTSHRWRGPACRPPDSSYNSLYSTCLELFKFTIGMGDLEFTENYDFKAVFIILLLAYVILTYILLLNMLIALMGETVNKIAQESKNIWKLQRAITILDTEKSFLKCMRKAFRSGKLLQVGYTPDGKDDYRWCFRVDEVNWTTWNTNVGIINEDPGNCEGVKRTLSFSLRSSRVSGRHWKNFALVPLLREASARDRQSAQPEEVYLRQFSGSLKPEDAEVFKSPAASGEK
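Fluo-8 calcium influx in TRPV1-expressing cells, kinetic read (ex 480/em 520 nm). Compound added and read 3 min for agonist activity, followed by capsaicin at EC20 final and 2 min further read for enhancement.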
* hit, by the source's call; ? = inconclusive; / = not tested or not shown; & = joins results of further samples; [ ] = dose if it differs, or a comment. Outcome played no part in choosing rows. About 5.3% of those tested had a hit in this group.

SMILES	gsp antag	Menin MLL FP FL	gsp agonist	CtBP-E1A blk	ClpP mod	Sfp PPTase inh	TRPV1 potentiator
CC1(C)CN(c2ccccc2)N(Cc2ccc(F)cc2)C1=O	?	-0.9	-65%[inhibitor]	9	-0.3%	-1%	/
COC(=O)CCC(=O)NNC(=O)c1ccc(Br)cc1	14%	-1.0	4%	-1	-0.8%	13%	24
CCOC(=O)C1=C(O)C(=O)N(c2ccc(S(N)(=O)=O)cc2)C1c1ccc([N+](=O)[O-])cc1 (centres undefined)	4%	3.7	0%	-7	-2.7%	2%	-6
O=c1cc(CSc2n[nH]c(=O)n2C2CC2)c2ccc(O)cc2o1	-2%	-2.8	8%	1	/	9%	0
CCN(CC)CCn1c(=S)[nH]c2ccc(Br)cc2c1=O	4%	4.4	?	-8	-1.8%	-1%	-21
CCCCNC(=S)N(C)/N=C/c1sc(N2CCCCC2)nc1-c1cccs1	/	?	/	/	/	4%	-6
COc1ccc(O)c(CN2CCN(CCCc3ccccc3)C(CCO)C2)c1 (centres undefined)	4%	-4.5	13%	-1	-0.1%	12%	-4
CC(Oc1nc2c(c(=O)n(C)c(=O)n2C)n1C)C1CCCCC1 (centres undefined)	-6%	/	-12%	8	-3.6%	/	/
Cc1cc(Oc2ccc(=O)n(C)n2)nc(=S)[nH]1	/	7.2	/	/	/	?	-18
Cc1cc(N2CCN(S(=O)(=O)c3ccccc3)CC2)c2ccccc2n1	-24%	0.0	-36%[inhibitor]	-9	-3.0%	-10%	-9
O=C(CN1C(=O)c2ccccc2S1(=O)=O)c1ccccc1F	6%	/	-8%	3	-1.4%	-9%	1
O=C(CCCOc1ccccc1)NNC(=O)c1ccncc1	5%	/	1%	5	/	/	/
COC(=O)COc1cccc(NC(=O)c2cccs2)c1	?	-1.5	-2%	-6	0.7%	7%	-4
CN(Cc1ccccc1)C(=O)c1ccc(NC(=O)c2ccccc2)cc1	-11%	/	-68%[inhibitor]	-4	-1.4%	5%	-12
CCCCC1=CC2=C(c3ccco3)C(=O)C(C)(OC(=O)c3ccc(OC)cc3)C(=O)C2=CN1CCN1CCOCC1 (centres undefined)	4%	?	/	-9	0.6%	6%&-4%	10
CCCN1CCN(C(=O)c2ccc(CS(=O)c3ccc(Br)cc3)o2)CC1 (centres undefined)	/	/	0%	-1	-0.4%	/	/
COc1cccc(CN2CC(C(=O)NCc3cccc(Cl)c3)CCC2=O)c1 (centres undefined)	17%	-0.2	?	1	1.4%	5%	-11
Cc1cc(-c2ccccc2)nc(N/N=C/c2ccc(O)cc2O)n1	-1%	1.1	-32%[inhibitor]	?	/	-1%	-6
CCn1c(-c2ccccc2Cl)nn(CC(=O)Nc2ccccc2OC)c1=S	-4%	2.0	-21%	-1	-0.8%	7%	9
CC1=C(C(=O)OCC2CCCO2)C(c2cccc(O)c2)NC(=O)N1 (centres undefined)	-2%	-0.5	14%	-6	-1.2%	8%	-22
COc1cccc(CC(=NO)c2cccc(OC)c2)c1	10%	/	11%	2	/	/	/
O=C(COc1c(Br)cc(Br)c2cccnc12)N1CCc2ccccc2C1	-12%	0.8	?	-23	-24%	2%	5
COCCCNC(=O)/C(C#N)=C/c1ccc(F)cc1	4%	-2.1	30%[15.4 µM]	5	/	-11%	-8
COc1ccc(N2CS(=O)(=O)/C(=C/N(C)C)C2=O)cc1	7%	0.7	20%	-1	1.4%	-8%	-22
CC[C@@]1(C(=O)OC)N[C@H](CN(C)C(=O)COC)[C@@H]2C(=O)N(Cc3ccccc3)C(=O)[C@@H]21	6%	/	/	7	-1.1%	/	/
OCCC1CN(Cc2cccc(F)c2F)CCN1CCc1ccccc1 (centres undefined)	11%	-4.9	0%	2	-0.5%	10%	5
CN1C=CC2=C(C#N)C(N)C(C#N)(C#N)[C@H](c3ccccc3)[C@H]2C1 (some centres undefined)	?	?	1%	2	?	0%	-14
CCc1noc(C)c1C(=O)N1CCN(S(=O)(=O)c2ccc(C)cc2)CC1	4%	/	20%[15.4 µM]	6	/	/	22
C=Cc1ccc(N=Cc2c(O)ccc3ccccc23)cc1	-8%	?	-4%	1	-5.7%	-15%	2
COc1ccc(S(=O)(=O)N2CCN(CC(=O)N3CCc4ccccc4C3)CC2)cc1OC	-5%	/	1%	/	-2.2%	/	-4
CCN(Cc1nc(-c2ccccc2)no1)C(=O)c1ccoc1C	-38%	20	23%[15.4 µM]	10	/	13%	-4
CCC1(c2ccccc2)NC(=O)N(CC(=O)Nc2ccc(Cl)c(S(=O)(=O)N3CCCCC3)c2)C1=O (centres undefined)	-9%	/	?	6	-0.8%	/	-5
O=C(c1cc(=O)c2ccccc2o1)N(Cc1ccccc1)C1CCS(=O)(=O)C1 (centres undefined)	-24%	-1.0	-31%[inhibitor]	8	1.2%	15%	-1
Cc1ccc(CNC(=O)c2cnc3ccccc3n2)cc1	-8%	-1.5	7%[15.4 µM]	4	/	1%	2
Cc1ccc(S(=O)(=O)N2C/C=C\CN(S(=O)(=O)c3ccccc3Br)CC2)cc1	-14%	/	/	6	1.3%	/	/
COc1ccc(NC(=O)CN(C)C2CCS(=O)(=O)C2)cc1 (centres undefined)	6%	/	?	0	-1.1%	/	-15
COc1cc(NC(c2ccccc2)c2ccccc2)cc(OC)c1OC	11µM*	3.2	0%[15.4 µM]	-15	/	-8%	-11
Cn1c(=O)c2cnc(N3CCOCC3)nc2n(C)c1=O	/	15	/	/	/	19%	-7
COc1ccc([C@H]2CC(=O)C=C(c3c(C)cc(C)cc3C)C2)cc1	-1%	/	/	13	1.7%	/	12
O=C(Nc1sc2c(c1C(=O)O)CCCCC2)c1cccs1	?	0.4	12%	/	-0.7%	8%	-10
COc1ccc(NC(=O)CSc2nnc3ccc(-c4ccncc4)nn23)cc1	8%	/	-5%[15.4 µM]	-3	/	/	13
CC(=O)Nc1ccc(OCC(=O)NCc2ccc(C)cc2)cc1	5%	-4.4	3%	4	-1.4%	11%	-3
O=C(NC1CC1)c1cc(OCC(F)(F)F)ccc1OCC(F)(F)F	9%	-3.5	?	-4	-0.2%	22%	5
COc1cc(CNCCO)cc(Cl)c1OCc1ccc(Cl)cc1Cl	8%	-5.0	?	-2	/	20µM*	-16
Cc1ccsc1C(=O)OCC(=O)NCc1ccccc1	11%	/	-4%[15.4 µM]	-4	-2.4%	/	/
CCOc1cc(Br)c(Br)c(C=Nc2ccc(NC(C)=O)cc2)c1O	8%	?	-14%	6	0.7%	4%	12
COc1cccc(OC)c1C(=O)NC(=S)N1CCOCC1	9%	0.5	-10%[15.4 µM]	13	/	-9%	6
Cc1csc(Nc2ccccc2)n1	8%	10	-34%[15.4 µM]	-9	/	-5%	-16
O=C(CSc1nnc(-c2ccc(F)cc2)o1)NC1CCCC1	0%	8.1	?	-7	/	12%	2
CC1Cn2c(nnc2C23CC4CC(CC(C4)C2)C3)S1 (centres undefined)	-6%	3.4	-10%	7	1.4%	5%	-4
Remaining list, next part.
SMILES	gsp antag	Menin MLL FP FL	gsp agonist	CtBP-E1A blk	ClpP mod	Sfp PPTase inh	TRPV1 potentiator
Fc1cccc(CNCC2CCCO2)c1 (centres undefined)	11%	1.6	2%[15.4 µM]	7	1.0%	18%	28
CC(O)Cc1cn(CC(=O)N2CCN(C(=O)OC(C)(C)C)CC2)nn1 (centres undefined)	8%	9.6	/	5	-0.7%	2%	6
COc1ccc(C(CNC(=O)c2ccc(NS(=O)(=O)c3ccc(F)c(C)c3)cc2)N2CCOCC2)cc1 (centres undefined)	-21%	/	-3%	0	-1.7%	/	30
O=C(CSCc1ccc(Cl)cc1)N/N=C/c1ccc(Cl)cc1Cl	-18%	5.6	?	5	2.7%	-2%	-21
CC1CCC(NC(=O)C2CCN(S(=O)(=O)c3cccc4nonc34)CC2)CC1 (centres undefined)	11%	8.3	-4%[15.4 µM]	1	/	16%	10
CCn1ccnc1CN(C)C(=O)c1cc(COc2ccc(OC)c3ccccc23)on1	?	0.9	?	-19	-8.4%	-12%	-3
O=C(Nc1ccc(Cl)cc1)OC(CN1CCCCC1)C(F)(F)F (centres undefined)	2%[15.4 µM]	3.0	-2%	-3	-2.5%	15%	/
COCCCN=C1NN=C(c2cc(C)n(Cc3ccccc3Cl)c2C)CS1	13%	-2.6	-18%[15.4 µM]	21	-26%	?	1
Cc1c(NC(=O)CSc2nnc(N)s2)c(=O)n(-c2ccccc2)n1C	6%	4.5	2%	-14	-3.3%	6%	-7
O=C(Cc1ccc([N+](=O)[O-])cc1)NCCc1ccc2c(c1)OCO2	-4%	/	21%	2	75%	/	/
COC(=O)C1CC2=C(CCCC2=O)N(c2ccccc2)C1=O (centres undefined)	9%	/	/	-18	-5.3%	/	/
Cc1ccc(-c2cc(C(=O)NCCc3ccccn3)c3ccccc3n2)c(C)c1	-2%	-1.6	-7%	1	28µM*	14%	-25
CCNc1nc(NC(C)C)nc(N(C#N)C(C)C(=O)N(C)C)n1 (centres undefined)	5%	-0.1	0%	0	-3.1%	9%	4
CCOc1ccc(C(=O)Nc2cccc(C)n2)cc1	-1%	1.1	-10%	15	-1.0%	4%	-15
Cc1ccc(S(=O)(=O)NCCCNC(=O)OCc2ccccc2)cc1	-24%	/	-4%	-2	-4.1%	/	/
Cc1ccc(NC(=O)Cc2ccc(F)cc2)cc1	4%	-0.6	13%	7	0.5%	5%	-13
Cc1ccc(NC(=O)Nc2ccc3c(c2)nnn3C)cc1C	-7%	-6.8	-86%[inhibitor]	5	/	15%	-3
CCNC(=O)CC1C(=O)N(C)C(=S)N1NC(=O)c1ccc(Cl)cc1 (centres undefined)	4%	1.6	-33%[inhibitor]	0	-0.2%	12%	6
CCOC(=O)N1CCC(NC(=O)c2cc(C(=O)Nc3ccc(S(=O)(=O)N4CCOCC4)cc3)ccc2CO)CC1	5%	-6.4	-19%	8	2.0%	14%	-3
O=C(Cn1c(NCCCO)nc2ccccc21)c1cccs1	-1%	/	0%	-2	-1.1%	/	/
COC(=O)C1=C(C(=O)OC)[C@@H]2Nc3ccccc3[C@@]23C[C@@H](C(=O)OC)N=C3N1	12%	0.1[11.7 µM]	/	5	0.9%	1%&4%	?
